Screens: PubChem, several laboratories
PrP UTR inh: inhibition of PrP 5' UTR reporter expression; inhibition, % (test concentration not listed); cell-based PrP 5' UTR mRNA reporter, plate reader; hit rate 0.35% among 340,000; AID 488862, 2010;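 active = every replicate at 50% or more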;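 also: 0 = median of the neutral control wells; tested in H4 reporter cells; numbers are from one replicate; inactives centre near -14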
Mtb hypoxia inh: PubChem AID 1159583. M. tuberculosis hypoxia-regulated fluorescent reporter, fluorescence. fluorescence inhibition, % (no concentration beside the values). hit rate 0.1% among 300,000;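 active = 35 to 45% if threefold the growth effect, above 45% if 1.5-fold the growth effect; inactive = the rest, general growth blockers included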;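 also: wells of about 50 µL received 100 nL stock; 0% = vehicle wells and 100% = reference inhibitor wells; whole bacteria with a GFP reporter of the hypoxia response; strong numbers were not always called active; many hits fall short of the cut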
BJeLR viability: MLPCN primary cell-based screen for lethality selective to Ras in HRASV12 cells; BJeLR (HRASV12) viability, CellTiter-Glo ATP luminescence, 48 h; reference of the scale not given here; inhibition, % (concentration not given with the values); hit rate 0.17% among 300,000; AID 1554, 2009;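 active = replicate mean above 50%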;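 also: 50 nL library stock added to about 25 µL; numbers are from one replicate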
Autofluor counter: counter-screen for toxin protease inhibitors: compound fluorescence. compound autofluorescence counterscreen, microsphere flow cytometry; hits give high values. fluorescence intensity (concentration not given with the values). hit rate 3.1% among 360,000. AID 624483;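 active = at least 3 SD above the mean of all compounds, about 16000 in these data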;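 also: 100 nL of 1 mM stock went into each well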
Sa ugtP lethal: growth inhibition of ugtP-null S. aureus, primary screen, RN4220 ugtP deletion, OD600. 16 h; some inactives read as strong as hits. growth inhibition, % (no concentration beside the values). AID 1259309, 2017. hit rate 0.54% among 330,000;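 active = z-score under -3 and OD600 up to 0.15 on both plates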;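 also: plate controls were untreated wells for no effect and antibiotic for full effect; wells of about 80 µL received 100 nL stock; the first replicate is given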
RN4220 kill: growth inhibition of S. aureus RN4220, primary screen, OD600; 16 h; inhibition, % (concentration not given with the values); hit rate 0.33% among 330,000;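 active = z-score of -3 or lower and OD600 up to 0.18 on both plates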;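 also: plate controls were untreated cells for no effect and reference antibiotic for full effect; stock transfer was 100 nL into about 80 µL; one replicate is shown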
Mtb hypoxia inh growth: recorded beside Mtb hypoxia inh, whose call it bears; growth inhibition, %; measured here: M. tuberculosis growth (absorbance);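 0% = vehicle and 100% = reference antibiotic; read after six days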
The depositor's hits bear a star; / = no result given.

Every second line gives: PrP UTR inh, Mtb hypoxia inh, Mtb hypoxia inh growth, BJeLR viability, Autofluor counter, Sa ugtP lethal, RN4220 kill
#1 COc1ccc(CNC(=O)C2CCN(C(=O)N3CCOc4ccc(C)cc43)CC2)cc1
 : -14, 5, 8, /, 2998, -3, -11
#2 CC1(c2ccccc2)NC(=O)N(CC(=O)Nc2ccccc2C(=O)N2CCCCC2)C1=O (configuration not stated)
 : -19, 4, 1, 2, 7077, 1, 2.0
#3 COc1ccc(C(=O)N(c2ccc(C)cc2)C2C=CS(=O)(=O)C2)cc1OC (configuration not stated)
 : -19, 5, -5, -21, 3363, 4, 1.6
#4 Cn1nc(C(=O)OCC(=O)Nc2ccc3ccccc3c2)c2ccccc2c1=O
 : -15, -5, 8, -9, 3994, 10, 8.4
#5 CCNCCC(=O)N1c2ccccc2Sc2ccc(NC(=O)OCC)cc21
 : -2, /, /, 7, 3568, -5, 1.7
#6 CC1=C(C(=O)Nc2ccccc2C(=O)NC2CCCCC2)SCCO1
 : -13, 1, 0, -2, 5163, 0, 0.3
#7 Cc1noc(C)c1S(=O)(=O)N(C)Cc1ccccc1
 : -6, 5, -2, 2, 3829, 11, 10
#8 CN(CC(=O)NCCc1ccc(F)cc1)Cc1cccc(Cl)c1
 : -10, 6, 11, 1, 4711, -4, 5.5
#9 O=[N+]([O-])c1ccc(N2CCN(c3ccccc3O)CC2)cc1
 : -16, 5, 1, -11, 4067, -6, -0.1
#10 CCn1cnc2scc(-c3ccccc3)c2c1=O
 : -24, 3, -1, -14, 4241, 6, -1.6
#11 Cc1cccc(NC(=O)c2cccc(NC(=O)c3ccco3)c2)c1C
 : -11, 13, 16, -3, 4089, 1, 3.8
#12 NNC(=S)NCc1ccco1
 : -15, -8, -6, 2, 4683, 8, 2.2
#13 COc1ccc(NC(=O)Cn2c(-c3ccc(OC)cc3)cn(-c3ccc(C)cc3)c2=O)cc1
 : -5, -75, -12, -12, 3130, 5, -2.2
#14 COc1ccc(NC(=O)COC(=O)Cc2c(F)cccc2Cl)cc1
 : -4, -3, 3, -10, 2472, -4, 0.2
#15 COc1cccc(CC2(CO)CCCN(Cc3cn[nH]c3C3CCCCC3)C2)c1 (configuration not stated)
 : -20, 1, 2, 7, 5212, 2, 3.0
#16 N#Cc1c(NC(=O)CSc2ncc(-c3ccccc3)n2CC2CCCO2)sc2c1CCCC2 (configuration not stated)
 : -24, 5, 5, -1, 11650, -3, 1.1
#17 O=C(CN1N=C(c2ccc(Cl)cc2)CCC1=O)NCc1cccnc1
 : -7, 7, 5, 3, 2450, 4, 1.5
#18 COc1cc(CN2CCN(C3CCC3)CC2CCO)cc(OC)c1 (configuration not stated)
 : -28, 12, 4, -2, 3193, 13, 4.1
#19 COc1ccc(C2CC(c3c(Cl)cccc3Cl)n3nc(N)nc3N2)cc1 (configuration not stated)
 : -46, /, /, 2, 6511, 1, 0.3
#20 CCC(C)(C)NC(=O)C(c1cccn1C)N(Cc1ccc(C)cc1)C(=O)Cn1nnc2ccccc21 (configuration not stated)
 : -23, 4, -5, 7, 2140, 0, -9.4
#21 COc1ccc(-c2ccc3c(c2)S(=O)(=O)c2cccc(C(=O)N4CCN(c5c(Cl)cncc5Cl)CC4)c2C3=O)cc1OC
 : -5, -13, 5, /, 4004, 5, 14
#22 COc1ccc(C(C(=O)NCC2CCCO2)N(C(=O)c2snc(C(N)=O)c2N)c2ccc(C)cc2)cc1OC (configuration not stated)
 : 9, -12, -6, -5, 5182, 8, 0.5
#23 Cc1cccc2sc(NC(=O)C3c4ccccc4Oc4ccccc43)nc12
 : -13, -8, 3, -3, 11366, -46, -5.8
#24 CN(CCc1ccccc1)C(=O)c1cccc(NC(=O)Cc2cccc(NC(=O)C3CCN(C(=O)C4CCC4)CC3)c2)c1
 : 39, -13, -3, /, 3626, 0, 1.4
#25 CCOC(=O)C1CCN(C(=O)C2(NC(=O)Nc3ccccc3Cl)CCCCC2)CC1
 : -12, /, /, -2, 4182, 12, -6.1
#26 O=C(COC(=O)/C=C/c1ccco1)NCc1ccc2c(c1)OCO2
 : -5, 0, 9, -17, 3319, -2, -0.4
#27 O=C(CCc1ccccc1)NN=Cc1cccc([N+](=O)[O-])c1
 : /, 0, 10, /, /, 0, -0.7
#28 O=C(COC(=O)C1CC1)NCCc1ccc(Cl)cc1
 : -19, 8, 0, /, /, 7, 2.5
#29 Cc1cc(C)n2nc(C(=O)OCC(=O)N(Cc3ccccc3)C(C)C)nc2n1
 : -4, 8, 7, /, /, 3, 1.1
#30 CCCN(Cc1ccc(N(C)C)cc1)CC1CC1
 : -24, 14, 4, 7, 10600, 6, 0.0
#31 Cc1cc(Oc2ccc(Cl)cc2)nc(SCC(=O)c2ccccc2)n1
 : -36, 8, 1, -7, 2198, 20, 15
#32 COc1cc(CNC(=O)c2cccc(COc3ccc(Cl)cc3)c2)cc(OC)c1
 : -168, -4, 7, -6, 2398, -27, -13
#33 CCOC(=O)CC(=O)CSc1nc2c(c(C)c1C#N)CCC2
 : -3, /, /, -6, 2961, 5, -4.3
#34 CC(=Nc1ccc2c(c1)CCC2)c1c(O)n(-c2ccccc2)c(=O)[nH]c1=O
 : -20, 4, -4, 4, 3553, -4, 2.8
#35 CC(=O)Nc1ccc(NC(=O)COc2c(C)cc(Br)cc2C)cc1
 : -9, 14, 7, -4, 4156, 6, 4.4
#36 Cc1c(C(O)CN2CCC(C(N)=O)CC2)c2ccccc2n1C (configuration not stated)
 : -5, 3, 9, -7, 2956, -6, -15
#37 Cc1cc(S(=O)(=O)Nc2c(NC3CCCCC3)c3ccccc3oc2=O)ccc1F
 : -3, -5, 2, 3, 5453, -2, -0.4
#38 CC(=O)c1ccc(N2CCN(C(=O)C3CCN(S(=O)(=O)c4ccc5c(c4)CC(C)N5C(C)=O)CC3)CC2)cc1 (configuration not stated)
 : -9, -17, -6, 5, 4184, 16, 3.8
#39 Cc1ccc(NC(=O)CCC(=O)N/N=C/c2ccco2)c(C)c1
 : 3, /, /, -8, 2445, /, /
#40 Cc1ccc(C(C)C)c(OCC(=O)NC(=S)Nc2ccccc2N2CCOCC2)c1
 : -14, 12, -14, -18, 5683, 24, 1.8
#41 Cc1ccc(C(CSc2nccn2-c2ncc(C(F)(F)F)cc2Cl)=NO)cc1
 : /, 4, 12, /, /, -7, 3.7
#42 O=C(CCCC(=O)N(CC(=O)NC1CCCCC1)c1cccc(F)c1)Nc1ccccn1
 : -19, 15, 8, 0, 4219, 17, 3.1
#43 O=C(Cc1ccccc1)NCC1OCCc2ccccc21 (configuration not stated)
 : -29, 16, -3, 2, 4390, 7, 5.7
#44 O=[N+]([O-])c1ccccc1/C=C/C=Nn1c(-c2cc(-c3ccccc3)n[nH]2)n[nH]c1=S
 : /, 9, -1, /, /, -10, 4.6
#45 CN(C)S(=O)(=O)Oc1cc(Cl)ccc1C(=O)Nc1ccc(F)cc1F
 : -29, 12, 4, -2, 4641, 3, 2.2
#46 Cc1cc(C)c2cc(CN(Cc3nnnn3Cc3ccc(F)cc3)C3CCCC3)c(=O)[nH]c2c1
 : -2, 1, -1, -5, 22029*, -6, 0.5
#47 CCCCOC(=O)CNc1n[nH]c(=S)[nH]c1=O
 : -16, 8, 4, 6, 21415*, 1, 3.0
#48 CCOC(=O)N1CCC(NC(=O)c2ccc(CNS(=O)(=O)c3ccc(F)cc3)cc2)CC1
 : 3, -7, 2, 14, 17979*, -6, -3.9
#49 CCn1c(SCC(N)=O)nc2c(c1=O)C1(CCCC1)Cc1ccccc1-2
 : -24, /, /, 2, 2375, 9, -5.9
#50 O=C1C2C(c3ccc(F)cc3)N3C(=O)N(c4cccc(Cl)c4)C(=O)[C@@]3(Cc3ccc(Cl)cc3)C2C(=O)N1C1CCCCC1 (some centres not stated)
 : /, 2, 9, /, /, 2, -0.7
#51 CC(C)CC(=O)Nc1c2c(nn1-c1ccc(F)cc1)CS(=O)(=O)C2
 : -24, -2, 4, 3, 3849, 3, 0.5
#52 CC(C)OC(=O)CCNc1n[nH]c(=O)[nH]c1=O
 : -13, -8, -8, 8, 3268, 3, 8.0
#53 O=C(O)c1cccc(NS(=O)(=O)c2cccc3cccnc23)c1
 : -14, /, /, 6, 5887, 9, 1.2
#54 CCOC(=O)c1sc(NC(=O)CSc2nc3cccnc3n2C)nc1C
 : 0, 1, -6, -4, 6126, 7, 2.2
#55 CN(c1ccc(C(=O)N2CCN(Cc3ccc4c(c3)OCO4)CC2)cc1)S(C)(=O)=O
 : -15, -7, -1, 2, 3664, 1, 0.4
#56 CC1CC(C)(C)n2c(O)c(N=NC(N)=S)c3cccc1c32 (configuration not stated)
 : -5, 14, 6, -1, 5083, 5, -17
#57 Cc1ccc(S(=O)(=O)NCC(=O)OCC(=O)N(Cc2ccccc2)C(C)(C)C)cc1
 : -13, /, /, -10, 2539, /, /
#58 COc1ccc2[nH]cc(C(=O)CN(C)C)c2c1
 : -25, /, /, -5, 5967, -9, 4.0
#59 COc1ccc2c(c1OC)C(=O)OC2Nc1nc2ccccc2s1 (configuration not stated)
 : -15, -3, -2, -4, 3382, -1, 1.8
#60 Cc1ccc([N+](=O)[O-])c(NC(=O)COC(=O)C2CC3CCCC(C2)C3=O)c1C (configuration not stated)
 : -29, 14, -2, 2, 4800, 6, 2.1

3 structures out of the list, sorted by length of the SMILES, ascending:
Every second line gives: PrP UTR inh, Mtb hypoxia inh, Mtb hypoxia inh growth, BJeLR viability, Autofluor counter, Sa ugtP lethal, RN4220 kill
#58 COc1ccc2[nH]cc(C(=O)CN(C)C)c2c1
 : -25, /, /, -5, 5967, -9, 4.0
#36 Cc1c(C(O)CN2CCC(C(N)=O)CC2)c2ccccc2n1C (configuration not stated)
 : -5, 3, 9, -7, 2956, -6, -15
#42 O=C(CCCC(=O)N(CC(=O)NC1CCCCC1)c1cccc(F)c1)Nc1ccccn1
 : -19, 15, 8, 0, 4219, 17, 3.1

The list goes on:
Every second line gives: PrP UTR inh, Mtb hypoxia inh, Mtb hypoxia inh growth, BJeLR viability, Autofluor counter, Sa ugtP lethal, RN4220 kill
#61 C/C(Cn1cnc([N+](=O)[O-])n1)=N\NC(=O)c1ccccc1O
 : -25, /, /, -5, 4481, /, /
#62 CC(=O)Nc1nc(NC(=O)/C=C/c2ccccc2)n(-c2ccccc2)n1
 : 8, 11, 3, 8, 2010, -14, 21
#63 Cc1cc(C)nc(/N=C(\N)Nc2ccc(S(=O)(=O)O)cc2)n1
 : -21, /, /, -6, 4664, /, /
#64 O=[N+]([O-])c1ccc(NC(=S)N2CCc3ccccc32)cc1
 : -18, 8, 5, /, 5519, -2, -3.8
#65 COc1ccc2c(OC)cc(=O)n(C)c2c1
 : -13, 3, 3, 4, 2534, 2, 3.3
#66 COc1ccc(CCNC(=O)COC(=O)/C=C/c2ccc(OC)cc2OC)cc1
 : -26, 7, 0, /, 3504, 25, -0.2
#67 Cc1ccc(-c2nnc(-c3cccc(NC(=O)c4cccs4)c3)o2)cc1
 : -30, -6, 6, -11, 3453, 58, 39
#68 CC(C)(C)c1cc(C(=O)O)nn1-c1ccccc1
 : -5, /, /, -3, 4308, 2, -1.6
#69 Cc1ccc(OCCC(=O)OCC(=O)N2CCN(S(=O)(=O)c3ccc(C)cc3)CC2)cc1
 : -21, -3, -6, 11, 26716*, 6, 7.2
#70 C(CCc1ccccc1)=NNc1nc2ccccc2[nH]1
 : /, 1, 5, /, /, 8, -0.2
#71 COc1ccc(C(=O)N/N=C(\C)CC(=O)Nc2ccc3c(c2)OCCO3)c(OC)c1
 : -34, /, /, -6, 2987, /, /
#72 COc1ccc(-n2c3c(c(=O)[nH]c2=O)C(C(F)(F)F)(C(F)(F)F)N=C(CC(C)C)N3)cc1
 : -8, -2, 5, -7, 19298*, -4, 2.1
#73 COc1ccc(/C=C2/SC(=O)N(CCC(=O)Nc3ccccc3C(=O)O)C2=S)cc1
 : -14, 5, 14, 4, 5866, -6, 8.9
#74 Cc1ccc(C(=O)N2CCN(S(=O)(=O)N3CCCCCC3)CC2)cc1
 : 1, -10, -8, -5, 3637, 7, 1.9
#75 CCC(C(=O)NC1CCCC1)N(C(=O)Cn1nnc(-c2ccc(C)o2)n1)c1cccc(O)c1 (configuration not stated)
 : -2, 8, -1, 5, 3093, 7, 7.6
